High-throughput results as filed in PubChem BioAssay.
FPR binding – small-molecule ligands of human FPR – U937-FPR cells, fMLFK-FITC, flow cytometry, primary screen (AID 362); U937-FPR cells, fMLFK-FITC displacement, flow cytometry; stronger effect = higher value; test concentration not given here; most inactive calls were filed without a number and no value below 0 was filed; inhibition, %; 4,300 tested, 1% active;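 active = inhibition of labelled peptide binding to the formyl peptide receptor of at least 65%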;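 note: plate controls were buffer control wells for no effect and unlabeled fMLFF blocking peptide for full effect; higher means less cell fluorescence so more probe displaced; part of the set was picked by virtual screening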
Starred values were filed as active, the others as inactive; i = inactive. These rows are one share of the data (hit frequency here may not be typical).

mol	FPR binding
CC(=O)N1CCc2cc(S(=O)(=O)NC(C(=O)NCc3ccccn3)C(C)C)ccc21 (stereo not given)	i
CCOc1ccc(C2C3=C(CC(C)(C)CC3=O)Nc3[nH]n(-c4ccccc4)c(=O)c32)cc1 (stereo not given)	76.0*
COC(=O)C1C(=O)C2=C(CC1C)NC(C)=C(C(=O)OC1CCCCCC1)C2c1ccccc1F (stereo not given)	1.4
COC(=O)C1C(=O)C2=C(CC1C)NC(C)=C(C(=O)OC1CCCCCC1)C2c1ccc(F)cc1 (stereo not given)	i
Cc1ccc(NC(=O)C(NC(=O)C2CCC(C)CC2)C(C)C)nc1 (stereo not given)	i
CC1=C(C(=O)OC2CCCC2)C(c2ccc3c(c2)OCO3)NC(=O)N1 (stereo not given)	i
COc1ccc(Oc2c(C(F)(F)F)oc3cc(OCc4ccccc4)ccc3c2=O)cc1	13.6
CCCCOc1ccccc1C1C(C(=O)OC2CCCC2)=C(C)NC2=C1C(=O)C(C(=O)OC)C(C)C2 (stereo not given)	0.2
Cc1ccc(CNC(=O)CSc2nc3ccccc3c(=O)n2CC2CCC(C(=O)NCCc3ccccc3)CC2)cc1 (stereo not given)	0.9
CC(C)CN(CC(C)C)S(=O)(=O)c1ccc(C(=O)Nc2ccc(-c3nc4ccccc4[nH]3)cc2)cc1	i
CCOc1ccc(C2C(C(=O)OC(C)CC)=C(C)NC3=C2C(=O)C(C(=O)OC)C(C)C3)cc1 (stereo not given)	i
CCCCn1c(=NC(=O)c2cccc(OC)c2OC)c(C(=O)OCC)cc2c(=O)n3ccccc3nc21	i
Cc1ccccc1C1C2=C(CC(C)(C)CC2=O)Nc2nc(C(F)(F)F)nn21 (stereo not given)	i
CCOCCOC(=O)C1=C(C)NC2=C(C(=O)C(C(=O)OC)C(C)C2)C1c1ccc(C(F)(F)F)cc1 (stereo not given)	17.2
CCOC(=O)C1CCCN(C(=O)Cn2cnc3sc(C)c(S(=O)(=O)N4CCC(C)CC4)c3c2=O)C1 (stereo not given)	i
COc1cc2c(C(=O)NCCCN3CCC(C)CC3)cn(CC(C)C)c(=O)c2cc1OC	i
CCC(CC)C1C(C#N)=C(N)OC2=C1C(=O)CC(C)(C)C2 (stereo not given)	i
CC1=C(C(=O)OC2CCCCCC2)C(c2cccc([N+](=O)[O-])c2)NC(=O)N1 (stereo not given)	18.3
CC(C)(C)c1cc(C(c2ccccn2)N2CCOCC2)cc(C(C)(C)C)c1O (stereo not given)	i
O=C1CSC(c2ccccc2)N1CC12CC3CC(CC(O)(C3)C1)C2 (stereo not given)	14.2
CC1=C(C(=O)Oc2ccccc2)C2(C)C3C(=O)N(c4ccc(C)cc4)C(=O)C3C1C1C(=O)N(c3ccc(C)cc3)C(=O)C12 (stereo not given)	i
CCOC(=O)C1CCC(CN(Cc2ccc(Cl)cc2)S(=O)(=O)c2ccc3c(c2)OCCO3)CC1 (stereo not given)	i
CCCOC(=O)C1=C(C)NC2=C(C(=O)C(C(=O)OC)C(C)C2)C1c1cc(OC)c(O)c(OC)c1 (stereo not given)	3.9
CN(C(=O)c1ccc2c(c1)OCO2)C1(C(=O)NC2CCCC2)CCCCC1	i
CCOC(=O)C1=C(N)OC2=C(C(=O)CC(C)(C)C2)C1c1ccc(O)c(OC)c1 (stereo not given)	5.5
CCCCc1cc(=O)oc2c(C)c(O)ccc12	i
C=CCSc1nc2c(c(=O)n1C1CCOC(C)(C)C1)C1(CCCC1)Cc1ccccc1-2 (stereo not given)	i
CCOc1ccc2c(c1)C(C)=CC(C)(C)N2C(=O)Nc1ccccc1	i
CN1C(=O)NC(c2cccc(C(F)(F)F)c2)C2=C1CC(C)(C)CC2=O (stereo not given)	i
O=C(NC1(C(F)(F)F)C(=O)Nc2c1c(=O)[nH]c(=O)n2-c1ccccc1)c1ccccc1 (stereo not given)	14.3
COC(=O)C1C(=O)C2=C(CC1C)NC(C)=C(C(=O)OCc1ccc(OC)cc1)C2c1cccs1 (stereo not given)	5.9
CC1(C)CC(=O)C2=C(C1)Nc1nc(C(F)(F)F)nn1C2c1ccccc1Cl (stereo not given)	i
CCCCN(CC)C(=O)c1sc2ncnc(N3CCN(c4ccccc4F)CC3)c2c1C	i
O=C1CCC(C(=O)NC2(C(=O)NC3CCCC3)CCCCC2)N1 (stereo not given)	i
O=C(O)C1CCC(CN(Cc2ccc(F)cc2)S(=O)(=O)c2ccc(Br)cc2)CC1 (stereo not given)	i
COc1ccccc1N1C(=O)C2C3CC4C5(C)CCCC(C)(C(=O)O)C5CCC4(C=C3C(C)C)C2C1=O (stereo not given)	24.7
CCOc1cccc2c1OC1(CCC(C)CC1)N1N=C(c3ccco3)CC21 (stereo not given)	i
CC(C)CCn1c(CN2CCc3ccccc3C2)nc2c1c(=O)n(C)c(=O)n2C	i
Cc1cc(NC(=O)C2CCCCC2C(=O)O)nn1Cc1ccc(Cl)cc1 (stereo not given)	3.0
COc1cc2c(C(=O)N3CCN(c4cccc(C)c4)C(C)C3)cn(CC(C)C)c(=O)c2cc1OC (stereo not given)	i
CC1=C(C(=O)OCC(C)C)C(c2cccc(O)c2)C2=C(CC(c3ccc(Cl)cc3)CC2=O)N1 (stereo not given)	i
O=C1c2cccc3cccc(c23)C(=O)N1CC1CCN(S(=O)(=O)c2cccs2)CC1	15.7
COc1cc2c(C(=O)N3CCN(c4ccccc4F)CC3)cn(CC(C)C)c(=O)c2cc1OC	i
CCC(C)C1C(C#N)=C(N)OC2=C1C(=O)CC(C)(C)C2 (stereo not given)	i
CCC(=O)N1CCc2cc(S(=O)(=O)NC(CC(C)C)C(=O)Nc3cc(C)ccc3OC)ccc21 (stereo not given)	i
COc1cccc(C(=O)Oc2cccc(N3C(=O)C4C5CCC(C5)C4C3=O)c2)c1 (stereo not given)	i
Cc1sc2ncn(CC(=O)N3CCN(c4cccc(C(F)(F)F)c4)CC3)c(=O)c2c1S(=O)(=O)N1CCC(C)CC1	4.6
O=C(NCc1cccs1)C1CCC(CNS(=O)(=O)c2ccc(Br)s2)CC1 (stereo not given)	16.4
CCOc1cc(C2C(C(=O)OCCSCC)=C(C)NC3=C2C(=O)C(C(=O)OC)C(C)C3)cc([N+](=O)[O-])c1O (stereo not given)	33.6
COc1cc(OC)cc(-c2nc3ccccc3c(=O)n2OC(=O)C2CCC(C(C)(C)C)CC2)c1 (stereo not given)	i
COCCCNC(=O)c1cc2c(=O)n3ccccc3nc2n(C2CCCC2)c1=N	4.8
Cc1ccc(S(=O)(=O)NCC2CCC(C(=O)N3CCCCCC3)CC2)cc1 (stereo not given)	2.6
Cc1ccc([N+](=O)[O-])cc1N1C(=O)C2C3C=CC(C4CC34)C2C1=O (stereo not given)	i
Cc1sc2ncn(CC(=O)NCc3cccnc3)c(=O)c2c1S(=O)(=O)N1CCC(C)CC1	i
O=C(CCCCCn1c(SCC(=O)NCc2ccco2)nc2ccsc2c1=O)NCCc1ccccc1	2.1
CCCOCCOC(=O)C1=C(C)NC2=C(C(=O)C(C(=O)OC)C(C)C2)C1c1ccc(N(C)C)cc1 (stereo not given)	78.6*
CCOc1ccccc1C1C2=C(CC(C)(C)CC2=O)Nc2nc3ccccc3n21 (stereo not given)	i
CCOC(=O)C1=C(C)NC2=C(C(=O)C(C(=O)OC)C(C)C2)C1c1ccc(OC)c(O)c1 (stereo not given)	14.7
Cc1sc2ncn(CC(=O)NCCCN3CCCC3)c(=O)c2c1S(=O)(=O)N1CCC(C)CC1	i
CC(=O)c1cccc(NC(=O)C(NS(=O)(=O)c2ccc3c(c2)CCN3C(C)=O)C(C)C)c1 (stereo not given)	i

(list continues)
SMILES	FPR binding
O=C(NCCC1=CCCCC1)C1CCC(CNS(=O)(=O)c2ccc(F)cc2)CC1 (stereo not given)	i
CCCOC(=O)C1=C(C)NC2=C(C(=O)C(C(=O)OC)C(C)C2)C1c1cc(OC)c(OC)cc1OC (stereo not given)	14.5
O=C(CCCCCn1c(SCC(=O)NCCC2=CCCCC2)nc2ccsc2c1=O)NCCc1ccccc1	19.3
O=S(=O)(c1ccc(Br)c2nsnc12)N1CCC(Cc2ccccc2)CC1	i
CCOC(=O)c1cc2c(=O)n3ccccc3nc2n(CC(C)C)c1=NC(=O)c1ccc(Cl)cc1	i
CCOC(=O)C1=C(C)NC2=C(C(=O)C(C(=O)OC)C(C)C2)C1c1ccc(Cl)cc1 (stereo not given)	4.8
CCCCCC1C(=O)CCC1CC(=O)OC (stereo not given)	i
Cc1c(N(C(=O)c2ccccn2)C2(C(=O)NC3CCCC3)CCCCC2)c(=O)n(-c2ccccc2)n1C	i
CC(C)C12CN3CC(C(C)C)(CN(C1)C3C(O)C(O)C(O)CO)C2=O (stereo not given)	i
CCCOC(=O)C1=C(C)NC2=C(C(=O)C(C(=O)OC)C(C)C2)C1c1ccc(Cl)cc1 (stereo not given)	20.1
COc1ccc(NC(=O)C(NS(=O)(=O)c2ccc3c(c2)CCCN3C(C)=O)C(C)C)c(OC)c1 (stereo not given)	i
CCCCCn1c(CN2CCN(C(=O)c3ccco3)CC2)nc2c1c(=O)n(C)c(=O)n2C	i
COc1cc(C2C(C(=O)OC3CCCC3)=C(C)NC3=C2C(=O)CC(c2ccc(Cl)cc2)C3)ccc1OC(C)=O (stereo not given)	8.8
CC1(C)CC(=O)c2cc(C(=O)O)c(=O)n(-c3ccc(Cl)cc3)c2C1	i
O=C(N1CCSCC1)C12CC3CC(C1)CC(n1cnc([N+](=O)[O-])n1)(C3)C2	4.1
Cc1ccc2nc3c(cc(C(=O)NCC4CCCO4)c(=N)n3C3CCCC3)c(=O)n2c1 (stereo not given)	i
COC(=O)c1ccccc1NC(=O)CSc1nc2ccsc2c(=O)n1CCCCCC(=O)NCc1ccc(C)cc1	i
O=C(O)c1cccc(Nc2cc(N3CCCCC3)c3noc4c3c2C(=O)c2ccccc2-4)c1	i
COc1ccc2c(c1)N(C(=O)C(C)N1C(=O)c3ccccc3C1=O)C(C)(C)C=C2C (stereo not given)	i
COc1cc2c(C(=O)N3CCN(c4ccc(C(C)=O)cc4)CC3)cn(CC(C)C)c(=O)c2cc1OC	i
O=C(O)C1C2CC3C1C(=O)Oc1ccc(Br)cc1C1c4sc(=O)[nH]c4SC2C13 (stereo not given)	11.0
CCNC(=O)c1cc2c(=O)n3ccccc3nc2n(C2CCCC2)c1=N	10.7
N#Cc1c2c(c(N3CCN(C45CC6CC(CC(C6)C4)C5)CC3)n3c1nc1ccccc13)CCC2	i
COc1ccc(C2C(C(=O)N3CCCC(C)C3)CC(=O)N2c2ccc(OC)cc2)cc1 (stereo not given)	5.2
N=c1c(C(=O)NCCN2CCOCC2)cc2c(=O)n3ccccc3nc2n1C1CCCC1	i
COc1ccc(OC)c(NC(=O)CSc2c3c(nc4ccccc24)CCCC3)c1	i
CC12CC3(C)CC(C(=O)O)(C1)CC(C(=O)O)(C2)C3	7.4
O=C(c1cc(S(=O)(=O)N2CCCCC2)ccc1F)N1CCCCC1	i
COC(=O)C1C(=O)C2=C(CC1C)NC(C)=C(C(=O)OCCOC(C)C)C2c1ccc(C)s1 (stereo not given)	50.6
CCCC1=C(C(=O)OCC)C(c2ccccc2Cl)C(C#N)=C(SCC(=O)Nc2ccccc2C)N1 (stereo not given)	i
CN(CC#CCC(O)(c1ccccc1)C1CCCC1)Cc1ccccc1 (stereo not given)	i
O=C(O)C1CCC(Cn2c(SCc3cc(=O)n4cc(Br)ccc4n3)nc3ccsc3c2=O)CC1 (stereo not given)	i
CCCOc1ccc(C2NC(=O)NC(C)=C2C(=O)OC2CCCC2)cc1OC (stereo not given)	1.1
O=C(O)CCCCCN1C(=O)C(=O)/C(=C(/O)c2ccc(F)cc2)C1c1ccccc1[N+](=O)[O-] (stereo not given)	4.7
CCOC(=O)c1cc2c(=O)n3ccccc3nc2n(C2CCCCC2)c1=N	i
CCOC(=O)C1=C(C)NC2=C(C(=O)C(C(=O)OC)C(C)C2)C1c1ccccc1C (stereo not given)	i
CCCCN(C)C(=O)c1oc(=O)c2ccccc2c1-c1ccc(C)cc1	9.7
COc1ccc(C2C(C#N)=C(N)N(c3ncn[nH]3)C3=C2C(=O)CC(C)(C)C3)cc1OC (stereo not given)	0.8
COc1cc([N+](=O)[O-])cc2c1NC(c1ccccc1)C1CC=CC21 (stereo not given)	i
COC(=O)c1cccc(N2C(=O)C3C4C=CC(CC4)C3C2=O)c1 (stereo not given)	i
COC(=O)C1C(=O)C2=C(CC1C)NC(C)=C(C(=O)OC(C)C)C2c1ccc2c(c1)OCO2 (stereo not given)	i
CCCCn1c(SCC(=O)Nc2ccccc2C(F)(F)F)nc2ccsc2c1=O	10.0
O=C1C2C3C=CC(CC3)C2C(=O)N1c1ccc2c(c1)OCO2 (stereo not given)	7.9
CC(C)C1N2CC3([N+](=O)[O-])CN1CC([N+](=O)[O-])(C2)C3(C)C (stereo not given)	i
